FEN1 inh: blocks human flap endonuclease 1. P39748. Recombinant FEN1 flap cleavage, fluorescence, 15 min. Potency, µM (titrated, usually from 114 µM), for the others: at the highest dose activity change, negative = inhibition, usual class: inhibitors. actives 0.35% (n = 390,000). AID 588795; also: nearly all actives have a fitted effect of over 65% in size
Target sequence (P39748 whole entry, looked up): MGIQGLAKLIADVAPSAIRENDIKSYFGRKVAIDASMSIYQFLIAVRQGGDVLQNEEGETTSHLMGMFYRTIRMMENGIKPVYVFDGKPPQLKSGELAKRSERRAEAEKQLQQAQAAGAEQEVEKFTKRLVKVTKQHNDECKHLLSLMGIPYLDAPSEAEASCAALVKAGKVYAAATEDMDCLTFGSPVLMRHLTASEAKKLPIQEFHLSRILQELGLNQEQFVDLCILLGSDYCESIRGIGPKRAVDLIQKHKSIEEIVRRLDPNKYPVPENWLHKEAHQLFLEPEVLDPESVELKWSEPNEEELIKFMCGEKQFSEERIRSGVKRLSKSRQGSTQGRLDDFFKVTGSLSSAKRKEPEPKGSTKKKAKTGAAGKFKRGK
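Concentration–response screening of FEN1 (10 nM): 15 min compound preincubation at room temperature, reaction started with 50 nM substrate and read at 0 and 15 min. Corrected, normalized data were fitted by a four-parameter Hill equation.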
N370S GC mod: inhibitors or activators of N370S glucocerebrosidase for Gaucher disease. P04062. N370S GC spleen homogenate, 4MU-glucoside fluorescence. Potency, µM (doses to about 59.4 µM), inactives show at the highest dose activity change, negative = inhibition, hits mostly inhibitors. actives 0.092% (n = 330,000);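 also: 0% = full enzyme activity and -100% = no enzyme basal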
The depositor's hits bear a star; ? = inconclusive; / = no result given; & = joins results of further samples; [ ] = another dose, or the depositor's remark. Calls follow the shape of the dose curve; as a rule, active = well fitted curve in the direction sought with a large enough effect; inconclusive = small, poorly fitted or top-dose-only effect, or another doubt; inactive = no such curve, though single readings can be large; an effect the other way counts as inactive or inconclusive. Unless noted, % is scaled to controls: 0 for no effect and ±100 for the full control effect; potency is read from the fitted curve at half-maximal effect. This is a subset; most or all hits stand in other tables.

SMILES	FEN1 inh	N370S GC mod
O=C(NCC1CCCO1)c1ccc(S(=O)(=O)Nc2ccc(F)cc2)cc1 (configuration not stated)	1%	-10%
COc1cc(CNCc2ccco2)ccc1OCc1ccccc1	-13%	-16%
CC1(C)Cc2ccccc2/C(=C/C(=O)c2ccccc2)N1	7%	-7%
CCCSc1nsc(NC(=O)c2cccnc2OCC)n1	4%	-7%
Cc1[nH]c(C)c(Cl)c(=O)c1Cl	/	2%
COc1ccc(C2CC(=O)C=C(NCc3ccccc3)C2)cc1 (configuration not stated)	2%	-1%
CC1=CN(S(=O)(=O)c2ccc(C)cc2)C[C@@H]2c3ccccc3N(S(=O)(=O)c3ccc(C)cc3)[C@H]12	-3%	/
COc1ccc(C(=O)N2CCN(c3ncccn3)CC2)cc1S(=O)(=O)N1CCOCC1	0%	/
CCN(CC(=O)Nc1ccccc1C(F)(F)F)C(=O)c1ccc(N2C(=O)CCC2=O)cc1	2%	-10%
O=C(CSC1=NCCS1)Nc1ccc(F)cc1	?	1%
Cc1ccsc1-c1n[nH]c(=S)n1C1CCCCC1	2%	10%
COC(=O)c1sc2ccccc2c1NC(=O)c1ccc(S(=O)(=O)N2CCCC(C)C2)cc1 (configuration not stated)	1%	-6%
C/C(=N\NC(N)=S)c1ccccc1	-13%	-2%
Cn1cnnc1SCC(=O)Nc1cc(C(F)(F)F)ccc1N1CCOCC1	5%	22%
NS(=O)(=O)c1ccc(CCNC(=O)C2CCN(S(=O)(=O)c3c(Cl)cccc3Cl)CC2)cc1	-2%	-11%
CCOC(=O)c1c(C)n(-c2ccccc2)c2ccc(OC(=O)COc3ccc(Cl)cc3)cc12	10%	/
Cc1nn(Cc2c(F)cccc2Cl)c(C)c1NC(=O)C1CC1	-1%	10%
O=C(CSc1nnc(CNc2ccc(F)cc2)n1Cc1ccco1)N1CCOCC1	0%	-5%
CC(C)OC(=O)CCc1nc2ccccc2[nH]c1=O	7%	-5%
Cc1nc(-c2cccc(F)c2)sc1CCNC(=O)C(=O)Nc1ccc2c(c1)OCCO2	-7%	/
CCCC(C)NC1=NCCCCC1 (configuration not stated)	-1%	4%
Cc1cccc(NC(=S)NNC(=O)c2nn(C)cc2Cl)c1	6%	10%
Cc1ccc(C(=O)O)cc1S(=O)(=O)N1CCOCC1	4%	-1%
COc1ccc(/C=C/C(=O)Nc2nc(-c3cccs3)ns2)cc1OC	-8%	/
COC(=O)CN1C(c2ccc(OC)cc2)=Nc2ccc(Cl)cc2C1c1ccccc1 (configuration not stated)	-9%	-7%

Additional records:
SMILES	FEN1 inh	N370S GC mod
C=CCn1c(=O)c(C(=O)Nc2ccccc2S(N)(=O)=O)c(O)c2ccccc21	0%	6%
O=C(CCNS(=O)(=O)c1cccs1)N1CCN(c2cccc(C(F)(F)F)c2)CC1	-5%	/
CCOc1ccc(C(=O)N(Cc2ccccc2)c2cccc(C)c2)cc1OC	-10%	-5%
CCCCCOC(=O)Nc1ccc(S(=O)(=O)Nn2cnnc2)cc1	12%	-2%
O=C1C2ON(c3ccccc3)C(c3cccnc3)C2C(=O)N1c1ccc(Cl)c(Cl)c1 (configuration not stated)	-1%	-12%
Cc1c(C)[n+](=O)c(-c2ccc(F)cc2)c(C)n1[O-]	3%	3%
CCc1cc(C(=O)NNC(=S)NC(C)c2ccccc2)cs1 (configuration not stated)	3%	12%
CC1CCN(c2ccc(C(=O)O)cc2)CC1	-1%	12%
COc1ccccc1N1CCN(C(=O)Cn2c(=O)n3nc(-c4ccc(C)cc4)nc3c3ccccc32)CC1	4%	/
COc1ccc(-c2nn(-c3ccccc3)cc2C(=O)NC2CCC(C)CC2)cc1 (configuration not stated)	-1%	-4%
CC(=O)O/N=C/c1c(N2CCOCC2)n(C)c2ccccc12	-2%	-1%
Cc1ccc(S(=O)(=O)NCc2nc3nc(C)cc(C)n3n2)cc1	-5%	/
COc1ccc(C(=O)NC2CCN(C(=O)Nc3ccc(F)cc3)CC2)cc1	2%	-4%
CC(=O)c1ccc(NC(=O)COCc2cc(-c3ccc(F)cc3)on2)cc1	1%	/
O=C(NC1CC(=O)N(c2cccc(F)c2)C1)C1CC1 (configuration not stated)	-8%	/
O=C(COc1ccc2ccccc2c1)Nc1ccc(S(=O)(=O)N2CCCCCC2)cc1	-5%	-1%
Cc1ccc(NC(=O)Cn2c(=O)n(Cc3ccco3)c(=O)c3oc4ccccc4c32)cc1C	-2%	/
N#Cc1ccc(Oc2nc(C#N)cc(-c3ccccc3)n2)cc1	-4%	4%
COCCN(C(=O)c1ccc2ccccc2c1)c1c(N)n(Cc2ccccc2)c(=O)[nH]c1=O	3%	-5%
NC(=NCc1ccccc1)c1cccc([N+](=O)[O-])c1	3%	1%
Cc1sc2nc(N)sc2c1C	1%	1%
O=C(NCCN1CCCCCC1)C1CCC(CNS(=O)(=O)c2cccc3cccnc23)CC1 (configuration not stated)	-12%	-17%
COc1ccccc1NC(=O)NNC(=O)COc1ccc2ccccc2c1	-6%	-6%
N#Cc1ccc(C(=O)CSc2n[nH]c(=O)n2Cc2ccco2)cc1	1%	-5%
O=C(c1cc2cc(Cl)ccc2[nH]1)N1CCN(Cc2ccc3c(c2)OCO3)CC1	-3%	-16%

Reformatted: results already given.
SMILES: CCOc1ccc(C(=O)N(Cc2ccccc2)c2cccc(C)c2)cc1OC
  FEN1 inh = -10%
  N370S GC mod = -5%
SMILES: CCCCCOC(=O)Nc1ccc(S(=O)(=O)Nn2cnnc2)cc1
  FEN1 inh = 12%
  N370S GC mod = -2%
SMILES: O=C1C2ON(c3ccccc3)C(c3cccnc3)C2C(=O)N1c1ccc(Cl)c(Cl)c1 (configuration not stated)
  FEN1 inh = -1%
  N370S GC mod = -12%
SMILES: Cc1c(C)[n+](=O)c(-c2ccc(F)cc2)c(C)n1[O-]
  FEN1 inh = 3%
  N370S GC mod = 3%

The list goes on.
SMILES	FEN1 inh	N370S GC mod
Cc1cccc2c(=O)c(C(=O)N3CCCCCC3)c[nH]c12	-6%	12%
O=C(Nc1nc(-c2cc(F)ccc2F)cs1)c1ccccn1	0%	0%
COC(=O)C1CCN(C(c2cc(OC)c(OC)c(OC)c2)c2sc3nc(C)nn3c2O)CC1 (configuration not stated)	-2%	2%
CCOC(=O)c1c(NC(=O)C(Sc2ccccc2)c2ccccc2)sc(C(N)=O)c1C (configuration not stated)	1%	9%
COc1cccc(NC(=O)Cc2nnc(SCC(=O)NC3CCCCC3)n2C)c1	8%	-3%
N/C(=N\OCc1ccc([N+](=O)[O-])cc1)c1ccccn1	-7%	-2%
OCCN(CCO)c1ncnc2c1oc1ccc(Br)cc12	0%	-7%
Cc1cccc(NC(=O)C2COc3ccccc3O2)n1 (configuration not stated)	3%	-4%
CCC(C)(C)NC(=O)CN(C(=O)C(=O)Nc1ccc2c(c1)OCCO2)N1CCOCC1	-16%	2%
COc1ccc(CNC(=O)c2n[nH]c3ccccc23)cc1OC	7%	1%
COC1CCN(C(=O)C2CCC(=O)N(CCc3cccc(F)c3)C2)CC1 (configuration not stated)	-2%	-6%
CCOc1ccc(C(=O)OCn2nnc3ccccc3c2=O)cc1OC	-2%	4%
Cc1ccc(S(=O)(=O)N2CCCc3cc(NS(=O)(=O)c4ccc(F)c(C)c4)ccc32)cc1	-17%	/
CC(C)[C@H](NC(=O)c1ccccc1F)C(=O)Nc1nc2c(s1)CCCC2	0%	?
Cc1ccc(Nc2c(-c3ccc(N4CCOCC4)cc3)nc3ccc(C)cn23)cc1	17%	/
Cc1cccc(OCCCCCN2CCOCC2)c1C	-18%	-2%
CCOC(=O)c1[nH]c(C)c(CC(C)C)c1C	-5%	-8%
COC(=O)[C@@H]1[C@@H]2C[C@H]3c4[nH]c5cc(OC)ccc5c4CCN3C[C@@H]2C[C@H](OC(=O)c2cc(OC)c(OC)c(OC)c2)[C@H]1OC	/	-7%[21.6 µM]
Cc1ccc(CC(=O)Nc2ccc(S(=O)(=O)N3CCOCC3)cc2)cc1C	-3%	/
CCn1cc([C@@H]2C[C@H]3CN(Cc4cccc(Cl)c4)C(=O)[C@]34CCCN24)cn1	-5%	-2%
COc1ccc(CNC(=S)Nc2ccc(OC)cc2)cc1	-5%	3%
CCOc1ccccc1OCC(=O)Nc1ccc(Cl)cc1Cl	-4%	15%
COc1cc(NC(=S)N2CCN(C(=O)C3CCCO3)CC2)c(OC)cc1Cl (configuration not stated)	6%	-6%
Cc1ccc(S(=O)(=O)N2CCC(C(=O)C3C(=O)CC(C)(C)CC3=O)CC2)cc1	1%	5%
CCOC(=O)c1cnc(SCCc2ccccc2)nc1N	-21%	26%

More results:
SMILES	FEN1 inh	N370S GC mod
CC1CN(C(=O)Nc2ccc3c(c2)OCO3)CC(C)O1 (configuration not stated)	35%	-8%
CCC(Oc1ccccc1)C(=O)Nc1ccc(S(=O)(=O)N2CCOCC2)cc1 (configuration not stated)	2%	-5%
Cc1ccc(Cl)cc1-n1ncc2c(N3CCC(C(N)=O)CC3)ncnc21	14%	/
O=C(NC1CC2CCCC(C1)N2Cc1ccccc1)C1CCCCC1 (configuration not stated)	-10%	-17%
NC(=O)CSc1nnc(CNc2cccc(Cl)c2)n1CCc1ccccc1	1%	5%
CC(C)(C)c1ccc(C(=O)NCC(=O)OCc2ccc([N+](=O)[O-])cc2)cc1	8%	9%
O=C(O)CN(CCN(CC(=O)O)CC(=O)O)CCN(CC(=O)O)CC(=O)O	-11%[57.1 µM]	-7%
O=C(OCC(=O)N1CCC(Cc2ccccc2)CC1)c1ccc(CO)cc1	3%	/
O=C(Nc1nc2c(F)c(F)c(F)cc2s1)c1ccco1	19%	1%
O=C(COC(=O)c1c2c(nc3ccccc13)CCCC2)Nc1ccc2c(c1)OCO2	1%	2%
Cc1cc2oc(C(=O)Nc3c(C)n(C)n(-c4ccccc4)c3=O)c(C)c2cc1Cl	0%	-8%
COc1ccccc1C(=O)/C=C/c1ccc(N2CCCCC2)c([N+](=O)[O-])c1	-11%	2%
O=C(NCCc1ccccc1)c1cnn2c(C(F)F)cc(C3CC3)nc12	-17%	?
Cc1ccc(F)c([C@H]2C3C=CCC(c4ccccc4)C3C(=O)N2Cc2ccccc2)c1 (some centres not stated)	-6%	20%
CCC(C)(C(=O)NC1CCCCC1)N(C(=O)C1CCC(=O)N1)c1ccccc1 (configuration not stated)	-3%	-13%
O=C1C2C3C=CC(C4CC34)C2C(=O)N1Cc1ccco1 (configuration not stated)	1%	4%
CCOC(=O)c1c(C)[nH]c(C(=O)N2CCCC(C(=O)c3ccccc3OC)C2)c1C (configuration not stated)	-2%	5%
COc1ccccc1CCNC(=O)CSc1nc(-c2ccco2)cc(C(F)(F)F)n1	-6%	7%
Cc1ccsc1C(=O)OCC(=O)NC1CCCC1	-3%	/
CC(C)c1ccc(C2CC(=O)c3cnc(N4CCc5ccccc5C4)nc3C2)cc1 (configuration not stated)	1%	-1%
Nc1c(C(=O)CSc2nccn2-c2ccc(Cl)cc2)c(=O)[nH]c(=O)n1C1CC1	-14%	/
N#C/C(=C\c1ccc(Cl)cc1)c1nc(-c2ccco2)cs1	-3%	-14%
O=C(CSc1ncccn1)N1CCc2ccccc2C1	-14%	8%
COCc1cc(=O)[nH]c(-c2ccc(C(F)(F)F)cc2)n1	0%	-8%
Nc1nonc1-n1nnc(C(=O)N/N=C/c2ccncc2)c1-c1cccs1	-2%	?

Continued.
SMILES	FEN1 inh	N370S GC mod
COc1ccccc1N1CCN(C2CCCN(C(=O)CCn3cncn3)C2)CC1 (configuration not stated)	-4%	0%
Cc1ccc(C2(C)NC(=O)N(CC(=O)Nc3ccc4c(c3)OCO4)C2=O)cc1 (configuration not stated)	-11%	1%
O=C(C1CCC(=O)N(C2CC2)C1)N(CCO)Cc1ccccc1 (configuration not stated)	-12%	-5%
S=c1[nH]nc(-c2ccccc2)o1	6%	-5%
Cc1cccc(-c2nnc(NC(=O)c3ccc(N4C(=O)CCC4=O)cc3)s2)c1	14%	-27%
COC(=O)C1=C(C)N(c2cc(C)cc(C)c2)/C(=C/c2ccco2)C1=O	-3%	-7%
CCOC(=O)c1cc(-c2ccccc2)n(-c2cccc(C(=O)NC(C)CC)c2)c1C (configuration not stated)	-21%	/
O=C(OOC(=O)c1ccccc1)c1ccccc1	/	-3%&-5%
COc1ccc(Cl)cc1NC(=O)CN(C)CC(=O)Nc1ccccc1N1CCOCC1	-12%	-2%
CCOc1ccc(N2C(=O)CC(NCCNc3ccc(C(=O)c4cccs4)cc3)C2=O)cc1 (configuration not stated)	-6%	-11%
COc1ccccc1NC(=O)Cn1nc(C(F)(F)F)c2c1CCCC2	-12%	8%
Cc1ccc(S(=O)(=O)Cc2ccc(C(=O)OCc3ccccc3)cc2)cc1	10%	28%
CCCNC(=O)c1ccc2c(=O)c(O)c(-c3ccc(Cl)c([N+](=O)[O-])c3)[nH]c2c1	?	0%
O=C(Cc1cccs1)Nc1cc(SCCO)cc([N+](=O)[O-])c1	1%	1%

High-throughput results: PubChem BioAssay, National Center for Advancing Translational Sciences (NCATS)
